VACV Venus inh – inhibitors of vaccinia virus (Venus reporter); AID 720580; Potency, µM (titrated, usually from 36.5 µM), for the others: at the highest dose activity change, negative = inhibition, usual class: inhibitors; Vaccinia virus Venus reporter expression, fluorescence; 0.46% of 330,000 active; active means well fitted inhibition curve with a large enough effect; inconclusive means small, poorly fitted or top-dose-only effect; inactive means no such curve, though single readings can be large or run the other way; tested in A549 cells; note: nearly all actives have a fitted effect of over 30% in size; inactives centre near -10
Vaccinia mCherry – vaccinia inhibition (mCherry reporter); Vaccinia virus mCherry reporter infection, fluorescence; about a quarter of the inactives have no number; Potency, µM (highest dose often 36.5 µM), for inactives: at the top dose activity change, negative = inhibition, usual class: inhibitors; 0.63% of 310,000 active; AID 720579; active = well fitted inhibition curve with a large enough effect; inconclusive = small, poorly fitted or top-dose-only effect; inactive = no such curve, though single readings can be large or run the other way; tested in A549 cells; note: nearly all actives have a fitted effect of over 35% in size; inactives centre near -10
Active calls of the source: *; i = inactive; ? = inconclusive; . = no result given; [ ] = remark or other dose. % is set by controls: 0 for no effect and ±100 for the full control effect; potency is the fitted concentration of half-maximal effect.

1	COc1ccc(C(C)=O)cc1CSc1nnc(Nc2c(C)cccc2C)s1
2	N#C/C(=C\c1c(N2CCC(C(N)=O)CC2)nc2ccccn2c1=O)S(=O)(=O)c1ccc(Cl)cc1
3	C[C@H]1[C@@H](Cc2cc(Cl)cc(Cl)c2)N(c2ccccc2)c2ccccc2CN1Cc1ccccc1
4	COC(=O)c1ccc2nc(-c3ccccc3)c(Cc3ccc(C)cc3)n2c1
5	Nc1nc2ccc(Cl)cc2[nH]1
6	Cc1nc(C(=O)O)nn1-c1ccc([N+](=O)[O-])cc1
7	CCN(CC(=O)Nc1ccc(OC)cc1)C(=O)c1cc(S(=O)(=O)N2CCOCC2)ccc1N1CCCC1
8	COc1cn(-c2ccccc2)nc1C(=O)NCc1ccccc1

Screen / compound no. | 1 | 2 | 3 | 4 | 5 | 6 | 7 | 8
VACV Venus inh | -21.7% | -15.0% | -8.9% | -1.9% | -3.3% | -0.6% | -10.8% | -3.3%
Vaccinia mCherry | -14.0% | i | -21.2% | -1.3% | i | i | i | 10.8%

9	CCN(CC(=O)Nc1ccc(NC(C)=O)cc1)C(=O)c1c(-c2c(F)cccc2Cl)noc1C
10	O=C(NCC(=O)N(c1cnc2ccccc2c1)C(C(=O)NC1CCCC1)c1ccncc1)c1ccco1 (stereo not drawn)
11	CCOC(=O)c1sc2nc(C)nc(NC3CCC(O)CC3)c2c1C (stereo not drawn)
12	NC(Cc1ccc(C(F)(F)F)cc1)c1csc(Nc2nccc(C(F)(F)F)n2)n1 (stereo not drawn)
13	COc1ccc(CCN2C(=O)CC(NNc3ccc([N+](=O)[O-])cc3)C2=O)cc1OC (stereo not drawn)
14	O=C(NC1CCCC1)c1ccc2c(c1)N(Cc1ccc(C(F)(F)F)cc1)C(=O)c1ccccc1S2
15	CC(=O)C1=C(O)C(=O)N(C)C1c1ccccc1F (stereo not drawn)
16	Fc1ccc(-c2cn(-c3ccccc3)c3[n+]2CCS3)cc1

Screen / compound no. | 9 | 10 | 11 | 12 | 13 | 14 | 15 | 16
VACV Venus inh | -20.4% | -10.8% | 4.5% | -21.2% | 4.1% | -22.5% | -28.2% | -3.0%
Vaccinia mCherry | -9.2% | i | -7.9% | 10.9% | 1.2% | -16.2% | . | i

17	Cc1ccc(NC(=O)NCCc2c(C)nn(C)c2C)c(Cl)c1
18	CCCn1cnc2sc(C(N)=O)c(C)c2c1=O
19	CCc1c(C)c(C#N)c2nc3ccccc3n2c1-n1nc(C)cc1C
20	Cc1nc2ccccn2c1C(=O)N/N=C/c1ccc([N+](=O)[O-])o1
21	Cc1cc(C)n(-c2cc(N3CCN(S(=O)(=O)c4ccc(Br)cc4)CC3)ccc2[N+](=O)[O-])n1
22	Cc1ccccc1CC1(CO)CCCN(Cc2c(C)nn(C)c2Cl)C1 (stereo not drawn)
23	CC(C)NS(=O)(=O)c1ccc(OCC(=O)NCc2ccccc2)cc1
24	CCOC(=O)c1c(C)[nH]c(C(=O)OCC(=O)N2CC(C)OC(C)C2)c1C (stereo not drawn)

Screen / compound no. | 17 | 18 | 19 | 20 | 21 | 22 | 23 | 24
VACV Venus inh | -1.6% | -22.4% | -5.4% | 7.08µM* | -18.1% | -11.9% | -16.8% | -17.1%
Vaccinia mCherry | -10.9% | ? | -7.9% | ? | -10.7% | -24.1% | . | -20.3%

25	CCc1cccc(C)c1NC(=O)c1cccc(C(=O)Nc2c(C)cccc2CC)c1
26	COc1cccc(N2CCN(c3c4c(nc5nncn35)CCC4)CC2)c1
27	O=C1C=C(Nc2ccc(Cl)cc2Cl)CC(c2ccco2)C1 (stereo not drawn)
28	Cc1cc2c(cc1C)N(C(=O)CCl)CC(=O)N2
29	CCOc1ccc(CN2C(=O)CC(=O)N(S(=O)(=O)c3ccc(OCC)cc3)C2=O)cc1
30	COc1ccc(OC)c(CCNC(=O)c2ccc3[nH]c(C)c(C)c3c2)c1
31	CCOC(=O)CSc1nnc(NC(=O)c2cccc(S(=O)(=O)N3CCCC3)c2)s1
32	Cc1cc(OCC(=O)N(C)Cc2ccccc2)cc(C)c1Cl

Screen / compound no. | 25 | 26 | 27 | 28 | 29 | 30 | 31 | 32
VACV Venus inh | 1.3% | ? | -26.6% | ? | -13.1% | 0.2% | 1.5% | -6.6%
Vaccinia mCherry | -1.8% | ? | -16.5% | -26.2% | -10.6% | i | -10.4% | -16.8%

33	Cc1ccc(-c2nc3ccccc3o2)cc1NC(=S)NC(=O)/C=C/c1ccco1
34	Cc1ccc(C)c(NC(=S)NCCc2c[nH]c3ccccc23)c1
35	COc1ccc(N(CC(=O)NCC2CCCO2)C(=O)CCC(=O)Nc2cc(C)on2)cc1OC (stereo not drawn)
36	CS(=O)(=O)N1CCC(C(=O)Nc2cccc(Br)c2)CC1
37	Cc1cc(C)nc(N2CCN(C(=O)CCC(=O)Nc3nnc(CC(C)C)s3)CC2)n1
38	COc1cc(NC(=O)CN2CCN(c3ccccn3)CC2)cc(OC)c1OC
39	COc1cc([N+](=O)[O-])cc(/C=N/N(CCC#N)C(C)=O)c1O
40	S=c1[nH]ncn1-c1ccccn1

Screen / compound no. | 33 | 34 | 35 | 36 | 37 | 38 | 39 | 40
VACV Venus inh | -28.2% | ? | -11.2% | -3.8% | -17.7% | 8.8% | -12.1% | -6.3%
Vaccinia mCherry | . | -24.7% | i | i | -3.3% | 0.7% | i | .

Individual results from the entries so far.
For VACV Venus inh, `N#C/C(=C\c1c(N2CCC(C(N)=O)CC2)nc2ccccn2c1=O)S(=O)(=O)c1ccc(Cl)cc1` is listed with -15.0%
For Vaccinia mCherry, `Cc1cc2c(cc1C)N(C(=O)CCl)CC(=O)N2` is listed with -26.2%

(continued)
41	O=C(CNC(=O)c1ccccc1)OCc1cccc(Br)c1
42	Cc1ccc(C(=O)Nc2onc3c2CCCC3)cc1
43	Cc1ccc(OCC(=O)N(C)Cc2ccccc2)c([N+](=O)[O-])n1
44	O=C(Cn1c(=O)n(Cc2ccc(F)cc2)c(=O)c2sc3ccccc3c21)NCc1ccccc1
45	O=C(NNc1ccccn1)c1ccc(Cl)nc1
46	O=C(CCSc1ccccc1)Nc1ccccc1Br
47	COc1ccc(Cl)c(Cn2c(NCCCN(C)C)nc3c2c(=O)n(C)c(=O)n3C)c1
48	Cc1ccc(N2CC(NC(=O)C3CCCCC3)CC2=O)cc1 (stereo not drawn)

Screen / compound no. | 41 | 42 | 43 | 44 | 45 | 46 | 47 | 48
VACV Venus inh | -8.3% | -1.8% | -11.7% | -2.1% | 16.6% | -18.4% | 22.4% | -14.6%[7.34 µM]
Vaccinia mCherry | -3.8% | -10.3% | -13.9% | -2.2% | i | -2.3% | -0.8% | -9.4%[7.34 µM]

Down the list, as entered above.
Vaccinia mCherry for entries 7 to 18: i, 10.8%, -9.2%, i, -7.9%, 10.9%, 1.2%, -16.2%, ., i, -10.9%, ?
VACV Venus inh for entries 7 to 18: -10.8%, -3.3%, -20.4%, -10.8%, 4.5%, -21.2%, 4.1%, -22.5%, -28.2%, -3.0%, -1.6%, -22.4%

Further entries:
49	CC1=C(C(=O)Nc2ccc(C)c(C)c2)C2(CCCCCC2)OC1=O
50	O=C(c1cc2ccccc2o1)N1CCN(c2ccccc2Cl)CC1
51	CCC(=O)Nc1ccc(N2CCN(S(C)(=O)=O)CC2)cc1
52	Cc1ccc(CCN2CC(C(=O)NC3CCC(C)CC3)CC2=O)cc1 (stereo not drawn)
53	COc1ccc(OC(F)(F)F)cc1CC1(C)C(=O)Nc2ccc(S(=O)(=O)NC3CCCCC3)cc21 (stereo not drawn)
54	CCOc1ccc(C(C(=O)NC2CCCC2)N(CCOC)C(=O)CNC(=O)c2ccco2)cc1 (stereo not drawn)
55	COc1cc(CCC(=O)N2CCN(S(=O)(=O)c3ccc(C)cc3)CC2)cc(OC)c1OC
56	CCN(CC)S(=O)(=O)c1ccc2c(c1)nc(SCC(N)=O)n2-c1ccc(OC)cc1

Screen / compound no. | 49 | 50 | 51 | 52 | 53 | 54 | 55 | 56
VACV Venus inh | -18.2% | -25.2% | -1.6% | -8.3% | ? | -6.2% | -7.3% | ?
Vaccinia mCherry | i | -6.0% | i | -25.7% | -17.3% | -5.2% | -15.5% | .

57	COc1ccc(NC(=O)CSc2cc(C)ccc2C)cn1
58	O=C(C1=C(O)C(=O)N(c2ncccn2)C1c1ccc(Cl)cc1)c1ccco1 (stereo not drawn)
59	COc1cccc(NC(=S)NNC(=O)Cn2nc([N+](=O)[O-])cc2C)c1
60	CCN(CC)S(=O)(=O)c1ccc2c(c1)nc(CN(C)C(=O)c1cccc(Cl)c1)n2C
61	CCCNc1ncnc2sc(C)c(C)c12
62	O=C(NCCOc1ccccc1)c1ccccc1NC(=O)C1CCCO1 (stereo not drawn)
63	CCOC(=O)c1c(NC(=S)Nc2ccccc2)sc2c1CCN(C)C2
64	C[C@@]12C(C[C@H](O)[C@@]34C[C@@H](CCC13)[C@@H](CO)C4=O)[C@](C)(C(=O)O)CC[C@@H]2O (stereo partly drawn)

Screen / compound no. | 57 | 58 | 59 | 60 | 61 | 62 | 63 | 64
VACV Venus inh | -7.9% | ? | -16.4% | -14.6% | ? | -5.1% | 3.9% | 0.6%
Vaccinia mCherry | -0.1% | . | -2.8% | -16.9% | . | 6.4% | -11.6% | 42.9%[activator]

65	O=C(COCc1cc(-c2cccs2)on1)NCc1ccccc1Cl
66	CCC/C(O)=C1\C(=O)CCCC1=NCCc1c(C)[nH]c2ccc(OC)cc12
67	COc1cc(NC(=O)c2ccno2)cc(C(=O)Nc2cccc(C(F)(F)F)c2)c1
68	O=[N+]([O-])c1cccc(/C=N\N2CCN(Cc3ccccc3Cl)CC2)c1
69	Nn1c(Nc2ccccc2)nc2ccccc2c1=O
70	Nc1ncnc2c1ncn2[C@@H]1O[C@H](C(=O)Nc2ccc(Oc3ccccc3)nc2)[C@@H](O)[C@H]1O
71	COc1cc(CNC(=O)OC2CC3CC2[C@H]2CCCCN2C3=O)cc(OC)c1 (stereo partly drawn)
72	O=C(COC(=O)CN1C(=O)c2ccccc2C1=O)Nc1ccccc1C(F)(F)F

Screen / compound no. | 65 | 66 | 67 | 68 | 69 | 70 | 71 | 72
VACV Venus inh | -15.1% | -22.1% | -11.1% | -17.8% | -25.0% | -12.1% | -0.4% | -8.3%
Vaccinia mCherry | -0.5% | -7.7% | -26.0% | -8.4% | -14.7%[1.46 µM] | i | 5.6% | i

In a second layout: results already given
Every second line gives: VACV Venus inh | Vaccinia mCherry
68. O=[N+]([O-])c1cccc(/C=N\N2CCN(Cc3ccccc3Cl)CC2)c1
  -17.8% | -8.4%
65. O=C(COCc1cc(-c2cccs2)on1)NCc1ccccc1Cl
  -15.1% | -0.5%
69. Nn1c(Nc2ccccc2)nc2ccccc2c1=O
  -25.0% | -14.7%[1.46 µM]

(next part)
73	CCOC(=O)c1scc(-c2ccccc2)c1S(=O)(=O)Nc1ccccc1OC
74	Clc1ccc(OCc2nc(-c3ccncc3)no2)c(Br)c1
75	Nn1c(SCc2cccc(F)c2)nnc1-c1cccnc1
76	CC(=O)c1ccc(NC(=O)Cn2c(=O)nc(-c3ccccc3)c3cc(Cl)ccc32)cc1
77	CCCC(=O)N1CC(=O)Nc2ccc(F)cc2C1c1ccccc1 (stereo not drawn)
78	COc1ccnc(Oc2ccccc2)c1C(N)=O
79	COc1ccc(NC(=O)C2CCN(C(=O)c3sc4nc[nH]c(=O)c4c3C)CC2)c(OC)c1
80	COc1cc2sc3cc(NCC[C@@H]4CCCN4C)ccc3c(=O)c2cc1OC

Screen / compound no. | 73 | 74 | 75 | 76 | 77 | 78 | 79 | 80
VACV Venus inh | -5.6% | -5.4% | -10.2% | -4.8% | -5.8% | 10.8% | 2.6% | ?
Vaccinia mCherry | -6.9% | -15.9% | i | -7.7% | -4.4% | -5.5% | -9.8% | -6.5%

81	CCNc1nc(C#N)nc(Nc2ccccc2)n1
82	Cc1ccc(C(=O)Nc2ccncc2)cc1S(=O)(=O)N1CCOCC1
83	CC(=O)NC(CC(=O)c1ccc([N+](=O)[O-])cc1)C(Cl)(Cl)Cl (stereo not drawn)
84	CN(CCc1ccccn1)C(=O)CC1C(=O)NCCN1Cc1ccccc1C(F)(F)F (stereo not drawn)
85	CNc1ccc(NC(C)=O)cc1[N+](=O)[O-]
86	COc1cc(CN2CC(=O)N(c3ccc(C)c(C)c3)C2=S)cc(OC)c1OC
87	O=C(NC1CCCCC1)c1ccc(Cn2c(SCc3cccc(F)c3)nc3cccnc32)cc1
88	C#CCN(C[C@H]1[C@H](OC(=O)NCc2ccc(OC)c(OC)c2)[C@H](OC(=O)NCc2ccc(OC)c(OC)c2)C[C@H]2C(=O)N(c3ccccc3)C(=O)[C@@H]12)S(=O)(=O)c1ccc(C)cc1

Screen / compound no. | 81 | 82 | 83 | 84 | 85 | 86 | 87 | 88
VACV Venus inh | -24.3% | ? | -4.3% | -4.0% | -1.0% | -2.2% | -26.5% | -10.1%
Vaccinia mCherry | -11.8% | -26.5% | -10.6% | i | -10.4% | -13.1% | -23.3% | i

Quoted at random: 4 records from the list, in no set order.
70	Nc1ncnc2c1ncn2[C@@H]1O[C@H](C(=O)Nc2ccc(Oc3ccccc3)nc2)[C@@H](O)[C@H]1O
72	O=C(COC(=O)CN1C(=O)c2ccccc2C1=O)Nc1ccccc1C(F)(F)F
18	CCCn1cnc2sc(C(N)=O)c(C)c2c1=O
56	CCN(CC)S(=O)(=O)c1ccc2c(c1)nc(SCC(N)=O)n2-c1ccc(OC)cc1

Screen / compound no. | 70 | 72 | 18 | 56
VACV Venus inh | -12.1% | -8.3% | -22.4% | ?
Vaccinia mCherry | i | i | ? | .
